# CSC inhib: cancer stem cell inhibition | hit rate 1.1% among 300,000 | inhibition, % at 7.5 µM | cancer stem cell-like cells viability, luminescence;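 active means mean at 75% or more and at least half the replicates too; inconclusive means mean and replicates disagree; tested in HMLE shEcad cells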;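 further: 0% = median of negative and 100% = median of positive control wells; the first replicate is given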
# Env fusion inh: blocks HIV Env-driven cell-cell fusion; HeLa-JRFL Env/CEM21 cell fusion, luciferase; inhibition, % at 12.3 µM; hit rate 1.1% among 360,000;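 active means mean replicate inhibition score of at least 50 and every replicate individually at or above 50; inconclusive means only one of the two criteria met; inactive means mean below 50 and not all replicates reaching 50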;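 further: 0% = plate neutral controls and 100% = maraviroc near 300 nM; one replicate is shown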
# PABP polyA inh: PABP-poly(A) binding inhibition; P11940; PABP-poly(A) RNA binding, fluorescence polarization; hit rate 1% among 290,000; inhibition, % at 35 µM;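 active means 50% or more with normal probe brightness, or confirmed in later tests; inconclusive means above 50% with abnormal brightness, or retests that disagree; inactive means below 50% or failed in later tests; about a fifth of its hits are not listed in these tables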;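 further: calls also rest on retests at 20 µM and on dose response follow-up; controls were probe without protein and protein plus probe with vehicle; some compounds called inactive have numbers as strong as hits; many hits fall short of the cut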
# Target sequence (P11940 whole entry, looked up): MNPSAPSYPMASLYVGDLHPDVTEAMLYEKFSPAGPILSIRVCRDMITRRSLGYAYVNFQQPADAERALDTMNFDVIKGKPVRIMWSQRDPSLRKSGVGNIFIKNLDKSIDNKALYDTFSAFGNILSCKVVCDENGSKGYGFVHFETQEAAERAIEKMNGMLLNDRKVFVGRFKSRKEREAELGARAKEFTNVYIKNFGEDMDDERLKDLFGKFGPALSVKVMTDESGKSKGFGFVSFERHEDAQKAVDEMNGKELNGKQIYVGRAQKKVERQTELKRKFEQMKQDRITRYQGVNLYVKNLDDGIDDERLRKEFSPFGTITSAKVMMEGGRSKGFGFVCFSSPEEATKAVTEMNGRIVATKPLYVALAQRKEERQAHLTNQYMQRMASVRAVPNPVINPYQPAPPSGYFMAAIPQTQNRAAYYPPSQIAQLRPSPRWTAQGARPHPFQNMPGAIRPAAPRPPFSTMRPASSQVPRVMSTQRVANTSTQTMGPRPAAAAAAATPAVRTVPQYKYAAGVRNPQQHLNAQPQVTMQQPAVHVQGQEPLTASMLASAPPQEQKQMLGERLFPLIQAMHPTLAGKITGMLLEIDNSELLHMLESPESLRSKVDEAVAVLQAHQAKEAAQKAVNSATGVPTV
# UUG fidelity: modulators of start codon recognition fidelity in yeast. S. cerevisiae UUG-firefly luciferase reporter, luminescence/redox ratio. activity score, % at 18.7 µM. hit rate 0.13% among 350,000;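 active means replicate mean at a twofold rise or more, about +100% in these data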;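 further: firefly luciferase made from a UUG start codon reports start codon fidelity; reporter light over untreated wells divided by growth signal over untreated wells; some hits fall short of that in this replicate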
# Rce1 inhib: blocks yeast Ras-converting enzyme; calls only; hit rate 0.27% among 290,000; Q03530; yeast membranes, quenched prenylated peptide cleavage fluorescence; AID 2563;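 active means fall in fluorescence gain of 50% or more versus controls, with final raw signal at or below 3038400; inconclusive means same 50% fall but final raw signal above 3038400; inactive means fall in fluorescence gain under 50%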;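 further: plate controls were neutral control wells for no effect and wells lacking membranes for full effect; tested at 10 µM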
# Target sequence (Q03530 whole entry, looked up): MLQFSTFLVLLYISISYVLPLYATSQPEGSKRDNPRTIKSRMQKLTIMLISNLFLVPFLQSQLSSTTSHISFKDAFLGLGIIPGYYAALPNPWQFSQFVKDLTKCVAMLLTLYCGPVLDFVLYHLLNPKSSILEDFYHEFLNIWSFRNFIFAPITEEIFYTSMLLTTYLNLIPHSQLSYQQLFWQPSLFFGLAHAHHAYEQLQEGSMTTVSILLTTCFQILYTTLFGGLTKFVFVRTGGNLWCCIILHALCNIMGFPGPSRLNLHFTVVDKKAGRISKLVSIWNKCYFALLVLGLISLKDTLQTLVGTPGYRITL
# eIF4H inh: inhibitors of RNA binding by human eIF4H. Q15056. eIF4H fluorescence polarization binding assay. inhibition, % at 35 µM. hit rate 0.94% among 290,000. AID 2012;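 active means 50% or more with normal probe brightness, or confirmed in later tests; inconclusive means above 50% with abnormal brightness, or retests that disagree; inactive means below 50% or failed in later tests; about a fifth of its hits are not listed in these tables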;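 further: calls also rest on retests at 20 µM and on dose response follow-up; 0% = protein and probe with vehicle and 100% = probe without protein; strong numbers were not always called active; many hits fall short of the cut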
# MT1-MMP act inh: MT1-MMP (human) activation inhibition; P50281; HT1080 RFP-PRO-GFP cells, GFP/RFP ratio fluorescence, overnight; percent of plate control window, DMSO zero; GFP/RFP ratio change, % at 20 µM; hit rate 0.061% among 360,000; AID 651647;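 active means GFP/RFP ratio change of at least 30% with cell ATP level not reduced by more than half and red fluorescence within 50% of control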; further: strong numbers were not always called active
#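 Material: RFP-PRO-GFP reporter HT1080 cells. Dosing: single-point 20 µM compound, 1% DMSO. Controls: DMSO and RFP-L50D-GFP cell wells. Timing: cells overnight before dosing, compound overnight, 37 °C, 5% CO2. Measure: GFP/RFP fluorescence ratio.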
# eIF4H inh retest: recorded beside eIF4H inh, whose call it bears; inhibition, %; compound at 20 µM; confirmation average;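 mean of two retest wells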
# PABP polyA inh retest: second read-out of PABP polyA inh, no call of its own (marks repeat the call); inhibition, %; compound at 20 µM; confirmation repeats;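 mean of two retest wells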
# MT1-MMP act inh RFP: further read-out of MT1-MMP act inh, marked with its call; RFP signal change, %; measured here: RFP expression control read;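 0 = vehicle wells; hits needed this value within 50% of zero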
# * hit, by the source's call; i = inactive; ? = inconclusive; / = no result given.
SMILES,CSC inhib,Env fusion inh,PABP polyA inh,UUG fidelity,Rce1 inhib,eIF4H inh,MT1-MMP act inh,MT1-MMP act inh RFP,others
O=C(NCC(c1ccc(F)cc1)N1CCOCC1)c1ccc(C(=O)c2ccccc2)cc1 (centres undefined),9,0,-6,/,i,-19,5,-1,
CCOc1ccc2nc(N3CCC(C(=O)NCCCN4CCOCC4)CC3)sc2c1,-1,-2,0,-7,i,-10,5,-2,
O=C(COc1ccccc1[N+](=O)[O-])Nc1cccc(Cl)c1N1CCOCC1,67,?,-5,3,i,-7,-2,-14,
Cc1nc2nc(-c3ccc(F)cc3)cn2nc1C,5,0,9,/,i,5,1,6,
COc1ccc(Cn2nnnc2CN2CCC(O)(c3ccccc3F)CC2)cc1,-13,5,5,/,i,-7,-2,0,
CCC1CCCCN1CC(O)Cn1c2ccccc2n2c(=O)cc(C)c(C#N)c12 (centres undefined),-16,-26,7,/,i,-13,-4,0,
CNC(=O)c1cn(-c2ccccc2)c(=O)c2ccccc12,-18,-44,-2,-4,i,-1,0,5,
COC(=O)C(C)Oc1ccc(Oc2nc(Cl)ccc2Cl)cc1 (centres undefined),-17,9,-6,/,i,-8,1,3,
O=C(c1cc2ccccc2oc1=O)N(Cc1cccs1)C1CCS(=O)(=O)C1 (centres undefined),-15,/,-13,-11,i,-8,1,1,
COc1cc(NS(=O)(=O)c2ccc(-c3ccc(=O)[nH]n3)o2)cc(OC)c1OC,-14,-4,-11,6,i,-6,0,3,
CCCOC1(NC(=O)c2ccccc2)C(C)=CC(=O)C=C1C,11,22,-8,-6,i,8,-6,-1,
CCOc1cccc2sc(=NC(=O)CCS(=O)(=O)c3ccccc3)n(CC)c12,45,21,-8,2,i,-5,-5,-3,
COc1ccc(C(=O)Nc2nc(N)n(-c3ccccc3)n2)cc1OC,-16,21,3,-32,i,2,-4,-1,
Cc1ccc(S(=O)(=O)N2CCCCC2)cc1NC(=O)C1=NN(c2ccccc2)C(=O)CC1,/,30,/,-2,/,/,15,1,
CCc1nc2c(OCc3ccccc3C(=O)OC)cccn2c1N(C)C(=O)c1cccs1,/,10,/,-23,/,/,0,-5,
Cc1ccc(OC(=O)C(C)c2cccc(C(=O)c3ccccc3)c2)cc1 (centres undefined),4,/,20,-19,i,-3,-1,5,
O=C(Cc1cc(=O)[nH]c(=O)[nH]1)NCCN1CCOCC1,0,/,-2,-14,i,-4,2,7,
CCCN1CCc2c(sc3nc(SC)n(-c4ccccc4)c(=O)c23)C1,60,0,22,-23,i,95,-9,-6,eIF4H inh retest=3;PABP polyA inh retest=25
CC(C)CN(C(=O)c1cccs1)C1CCS(=O)(=O)C1 (centres undefined),/,-1,/,/,i,/,-2,1,
Cc1cc(=O)oc2ccc(OCc3ccccc3)cc12,7,-12,16,4,i,-4,8,6,
COc1ccccc1C(=O)Oc1cc(N)n(S(=O)(=O)c2ccc(C)cc2)n1,-14,18,15,-15,i,8,4,4,
COc1ccc(/C=N/Nc2cc(C)nc(N3CCOCC3)n2)cc1OC,0,-5,-2,-5,i,2,4,1,
CCOC(=O)C1=C(O)/C(=C/c2cc(OC)c(O)c(OC)c2)SC1=Nc1ccc(OC)cc1,/,16,-4,/,i,39,-20,19,
CCOc1cc(/C=C/C(=O)NCCc2ccc(S(N)(=O)=O)cc2)ccc1OCC(C)C,9,2,2,/,i,-13,0,0,
O=C(O)C1CCC(CNCc2ccncc2)CC1 (centres undefined),-8,0,4,9,i,4,-2,1,
CC(=O)N1CCN(c2ccc(S(=O)(=O)N3CCCCC3)cc2[N+](=O)[O-])CC1,-12,10,/,-14,/,/,-1,-7,
CCCC1NC(=O)c2cccnc2-n2c1nc1ccc(Cl)cc1c2=O (centres undefined),/,-3,/,-12,/,/,-2,-1,
COCCCNC(=O)Cc1ccc(S(=O)(=O)N2CCOCC2)s1,/,-3,/,-3,/,/,-2,2,
O=C(Cc1ccc(S(=O)(=O)N2CCOCC2)s1)Nc1ccccc1Br,13,-4,1,1,i,2,0,-2,
CCn1c(SCC(=O)NC2CCCC2)nc2c(c1=O)SCC2,/,-16,/,-8,/,/,4,5,
COc1ccc(S(=O)(=O)NC(C)C(=O)NCc2ccccn2)cc1Cl (centres undefined),4,-6,2,-7,i,-1,5,4,
Cc1cccc(-c2nnc(SCC(=O)O)n2Cc2ccccc2)c1,-13,-14,1,-16,i,0,-3,-2,
COc1ccc(F)cc1CN1CCN(C(=O)CCC(=O)Nc2nnc(CC(C)C)s2)CC1,18,-3,-5,-13,i,-17,1,-3,
CCCN1CCC(NC(=O)CCc2nnc(Cc3cc(OC)ccc3OC)o2)CC1,13,-7,-6,5,i,8,-5,2,
COc1cccc(CN(C(=O)CN2C(=O)c3ccccc3S2(=O)=O)C(C(=O)NCC2CCCO2)c2ccco2)c1 (centres undefined),-2,-2,0,-7,/,-1,0,1,
COc1ccccc1N1CCN(CCCCNC(=O)c2ccc3ccccc3c2)CC1,-5,25,/,-11,/,/,1,-11,
CCN(CC)S(=O)(=O)c1cc(C(=O)Nc2ccccn2)ccc1C,1,-22,-5,-14,i,-4,0,1,
COc1cccc(C(=O)NNC(=O)c2ccc3ccccc3c2)c1,/,26,/,-11,/,/,0,-1,
CC1CCCC(NC(=O)c2cc(S(=O)(=O)N3CCCCC3)ccc2Cl)C1C (centres undefined),-5,/,/,1,/,/,-4,-16,
Cc1cccc(NC2SC(=O)N(CC(=O)O)C2=O)c1 (centres undefined),-7,-18,-5,-21,i,4,-8,-4,

# 2 neighbouring compounds already listed:
SMILES,CSC inhib,Env fusion inh,PABP polyA inh,UUG fidelity,Rce1 inhib,eIF4H inh,MT1-MMP act inh,MT1-MMP act inh RFP,others
COc1ccccc1C(=O)Oc1cc(N)n(S(=O)(=O)c2ccc(C)cc2)n1,-14,18,15,-15,i,8,4,4,
COc1ccc(/C=N/Nc2cc(C)nc(N3CCOCC3)n2)cc1OC,0,-5,-2,-5,i,2,4,1,

# Three entries picked at random from the list so far:
SMILES,CSC inhib,Env fusion inh,PABP polyA inh,UUG fidelity,Rce1 inhib,eIF4H inh,MT1-MMP act inh,MT1-MMP act inh RFP,others
COc1cccc(CN(C(=O)CN2C(=O)c3ccccc3S2(=O)=O)C(C(=O)NCC2CCCO2)c2ccco2)c1 (centres undefined),-2,-2,0,-7,/,-1,0,1,
O=C(Cc1ccc(S(=O)(=O)N2CCOCC2)s1)Nc1ccccc1Br,13,-4,1,1,i,2,0,-2,
COc1ccc(/C=N/Nc2cc(C)nc(N3CCOCC3)n2)cc1OC,0,-5,-2,-5,i,2,4,1,

# (continued)
SMILES,CSC inhib,Env fusion inh,PABP polyA inh,UUG fidelity,Rce1 inhib,eIF4H inh,MT1-MMP act inh,MT1-MMP act inh RFP,others
Cc1ccc2cccc(N)c2n1,-2,11,2,-16,i,86,1,2,eIF4H inh retest=37;PABP polyA inh retest=24
Cc1ccc(N(CC(=O)N2CCCCCC2)S(=O)(=O)c2ccccc2)cc1,-15,13,4,-3,i,-10,-1,1,
CCC(=C/c1sc2ccc3ccccc3c2[n+]1C)/C=C1\Sc2ccc3ccccc3c2N1C,37,11,-9,-15,i,-18,-26,9,
COc1ccc(Nc2nc(N(C)c3ccccc3)nc(N)c2[N+](=O)[O-])cc1,-7,-15,8,/,i,0,0,-2,
O=C(CN1C(=O)S/C(=C\C=C\c2ccccc2)C1=O)NC1CCS(=O)(=O)C1 (centres undefined),-11,-18,12,-9,i,-6,3,2,
CC1=C(C(=O)OCC(C)C)C(c2ccsc2)C2=C(CCCC2=O)N1 (centres undefined),-11,36,-6,/,i,-9,1,-1,
CN(C)CC(C)(C)CNC(=O)c1cc(=O)c2ccccc2o1,-13,-33,-10,-14,i,-7,-8,-4,
COC(=O)[C@H](CCSC)NC(=O)Nc1ccc(C)cc1,-12,-94,17,-16,i,-8,16,3,
O=S1(=O)CCOCCCN1Cc1ccc(Cl)cc1,/,-2,-7,-12,i,-3,0,-1,
O=C(CNC(=O)c1cccs1)NCC(=O)OCc1ccc(F)cc1,1,2,-10,10,/,-2,2,-1,
CC(C)(C#N)NC(=O)C1CCCN1S(=O)(=O)c1ccc2ccccc2c1 (centres undefined),9,15,16,-5,/,-12,2,-2,
COc1cc(C(=O)NCC2CCCO2)ccc1OCc1ccc(Cl)cc1 (centres undefined),-13,/,/,-13,/,/,2,-3,
COc1ccc(-c2cc(=O)c3ccccc3n2C)cc1,-4,/,7,-3,i,6,4,2,
CCN(C(=O)COC(=O)c1cnc(C)cn1)C1CCCCC1,6,/,28,-9,i,-8,11,9,
CCOC(=O)c1sc(NC(=O)/C=C/c2ccc(F)cc2)nc1C,-7,3,0,/,i,3,0,0,
N#Cc1ccccc1Sc1ccccc1C(=O)Nc1ccccc1,-7,/,-7,14,i,6,-3,-2,
COc1ccc(C(=O)OCC(=O)c2ccccc2)cc1S(=O)(=O)N1CCOCC1,-10,-21,3,-11,i,-7,-9,-2,
O=C(N/N=C/c1ccco1)c1cc([N+](=O)[O-])cc([N+](=O)[O-])c1,-15,14,-6,/,i,33,5,7,
O=C(O)CC12CC3CC(C1)CC(n1ncc(NCc4ccccc4)c(Cl)c1=O)(C3)C2,-12,-13,2,-2,i,-6,2,-2,
COc1ccc(C)cc1NC(=O)Cn1cnc2sc(C)c(S(=O)(=O)N3CCOCC3)c2c1=O,2,-79,0,/,i,8,2,4,

# Structures listed so far containing a cyano group, in the order listed:
SMILES,CSC inhib,Env fusion inh,PABP polyA inh,UUG fidelity,Rce1 inhib,eIF4H inh,MT1-MMP act inh,MT1-MMP act inh RFP,others
CCC1CCCCN1CC(O)Cn1c2ccccc2n2c(=O)cc(C)c(C#N)c12 (centres undefined),-16,-26,7,/,i,-13,-4,0,
CC(C)(C#N)NC(=O)C1CCCN1S(=O)(=O)c1ccc2ccccc2c1 (centres undefined),9,15,16,-5,/,-12,2,-2,
N#Cc1ccccc1Sc1ccccc1C(=O)Nc1ccccc1,-7,/,-7,14,i,6,-3,-2,

# (further entries)
SMILES,CSC inhib,Env fusion inh,PABP polyA inh,UUG fidelity,Rce1 inhib,eIF4H inh,MT1-MMP act inh,MT1-MMP act inh RFP,others
CCC(CC)c1nnc(NC(=O)CCN2C(=O)c3ccccc3C2=O)s1,-4,/,2,-11,i,-6,1,3,
CCC(C)NC(=O)C1CCC(CNS(=O)(=O)c2cccc3nsnc23)CC1 (centres undefined),11,/,2,-13,i,34,1,1,
CCC(C)c1ccccc1NC(=O)c1cccc(-n2cnnn2)c1 (centres undefined),/,32,/,5,/,/,0,2,
Cc1ccc(-c2cc3ccccc3nc2N2CCCC2)cc1,20,/,-4,12,i,-11,-3,-3,

# High-throughput results (PubChem)
